PABP polyA inh – PABP-poly(A) binding inhibition; PABP-poly(A) RNA binding, fluorescence polarization; inhibition, % at 35 µM; actives 1% (n = 290,000); AID 2014;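 active means 50% or more with normal probe brightness, or confirmed in later tests; about a fifth of its hits are not listed in these tables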;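 further: calls also rest on retests at 20 µM and on dose response follow-up; controls were probe without protein and protein plus probe with vehicle; some compounds called inactive have numbers as strong as hits; many hits fall short of the cut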
Target sequence (P11940 whole entry, looked up): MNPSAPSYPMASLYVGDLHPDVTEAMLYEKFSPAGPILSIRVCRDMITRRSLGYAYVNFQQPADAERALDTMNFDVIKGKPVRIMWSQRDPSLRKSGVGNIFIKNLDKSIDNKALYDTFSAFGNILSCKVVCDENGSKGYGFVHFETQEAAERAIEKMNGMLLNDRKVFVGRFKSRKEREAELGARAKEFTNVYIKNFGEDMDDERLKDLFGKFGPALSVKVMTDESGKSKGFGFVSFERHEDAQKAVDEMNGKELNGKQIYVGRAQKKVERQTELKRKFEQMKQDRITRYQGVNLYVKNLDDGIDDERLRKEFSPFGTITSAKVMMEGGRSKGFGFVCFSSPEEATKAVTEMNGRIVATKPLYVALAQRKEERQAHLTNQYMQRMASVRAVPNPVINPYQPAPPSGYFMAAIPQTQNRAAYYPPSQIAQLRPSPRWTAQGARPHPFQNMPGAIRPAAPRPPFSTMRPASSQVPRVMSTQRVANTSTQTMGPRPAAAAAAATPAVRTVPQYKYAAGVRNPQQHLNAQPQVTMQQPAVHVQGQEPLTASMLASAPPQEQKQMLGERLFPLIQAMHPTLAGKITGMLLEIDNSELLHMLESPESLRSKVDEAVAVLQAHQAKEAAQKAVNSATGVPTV
eIF4H inh – inhibitors of RNA binding by human eIF4H. inhibition, % at 35 µM. actives 0.94% (n = 290,000). AID 2012. eIF4H fluorescence polarization binding assay;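 active means 50% or more with normal probe brightness, or confirmed in later tests; about a fifth of its hits are not listed in these tables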;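 further: calls also rest on retests at 20 µM and on dose response follow-up; 0% = protein and probe with vehicle and 100% = probe without protein; strong numbers were not always called active; many hits fall short of the cut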
Rce1 inh – yeast Ras-converting enzyme inhibition; yeast membranes, quenched prenylated peptide cleavage fluorescence; calls only; actives 0.27% (n = 290,000); AID 2563;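 active means fall in fluorescence gain of 50% or more versus controls, with final raw signal at or below 3038400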;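 further: plate controls were neutral control wells for no effect and wells lacking membranes for full effect; tested at 10 µM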
Target sequence (Q03530 whole entry, looked up): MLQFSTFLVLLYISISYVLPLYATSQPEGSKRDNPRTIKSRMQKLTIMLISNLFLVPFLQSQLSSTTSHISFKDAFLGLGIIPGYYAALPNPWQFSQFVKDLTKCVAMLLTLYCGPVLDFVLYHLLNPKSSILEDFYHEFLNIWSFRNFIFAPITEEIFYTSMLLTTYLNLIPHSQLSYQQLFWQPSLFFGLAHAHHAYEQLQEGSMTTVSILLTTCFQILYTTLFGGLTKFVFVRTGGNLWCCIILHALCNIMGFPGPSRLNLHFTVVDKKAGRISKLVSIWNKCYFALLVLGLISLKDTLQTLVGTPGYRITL
Env fusion inh – inhibitors of HIV Env-mediated cell fusion; AID 651610; inhibition, % at 12.3 µM; HeLa-JRFL Env/CEM21 cell fusion, luciferase; actives 1.1% (n = 360,000);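 active means mean replicate inhibition score of at least 50 and every replicate individually at or above 50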;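 further: 0% = plate neutral controls and 100% = maraviroc near 300 nM; one replicate is shown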
Yeast UUG start – alters start codon recognition fidelity in yeast; S. cerevisiae UUG-firefly luciferase reporter, luminescence/redox ratio; activity score, % at 18.7 µM; actives 0.13% (n = 350,000); AID 602363;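 active means replicate mean at a twofold rise or more, about +100% in these data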;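 further: firefly luciferase made from a UUG start codon reports start codon fidelity; reporter light over untreated wells divided by growth signal over untreated wells; some hits fall short of that in this replicate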
MT1-MMP act inh – blocks activation of human MT1-MMP; GFP/RFP ratio change, % at 20 µM; HT1080 RFP-PRO-GFP cells, GFP/RFP ratio fluorescence, overnight; percent of plate control window, DMSO zero; actives 0.061% (n = 360,000); P50281; AID 651647;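 active means GFP/RFP ratio change of at least 30% with cell ATP level not reduced by more than half and red fluorescence within 50% of control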; further: strong numbers were not always called active
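Compound: 20 µM single dose, 1% DMSO / System: HT1080 RFP-PRO-GFP cells / Controls: DMSO and RFP-L50D-GFP cell wells / Read-out basis: GFP/RFP fluorescence ratio / Schedule: overnight compound exposure at 37 °C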
CSC inhib – blocks cancer stem cells; cancer stem cell-like cells viability, luminescence; inhibition, % at 7.5 µM; actives 1.1% (n = 300,000);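 active means mean at 75% or more and at least half the replicates too; tested in HMLE shEcad cells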;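 further: 0% = median of negative and 100% = median of positive control wells; the first replicate is given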
MT1-MMP act inh RFP – further read-out of MT1-MMP act inh, marked with its call; RFP signal change, %; measured here: RFP expression control read;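 0 = vehicle wells; hits needed this value within 50% of zero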
The depositor's hits bear a star; i = inactive; nt = not tested or not shown.

SMILES	PABP polyA inh	eIF4H inh	Rce1 inh	Env fusion inh	Yeast UUG start	MT1-MMP act inh	MT1-MMP act inh RFP	CSC inhib
CCc1nc2ccccc2nc1N1CCN(S(=O)(=O)c2c(C)cc(Cl)cc2C)CC1	6	-2	i	-22	11	1	1	22
O=C(C[C@@H]1C/C=C\C[C@H](Cc2ccc(F)cc2)C(=O)OC[C@@H](Cc2c[nH]c3ccccc23)NC1=O)NCCO	nt	nt	nt	3	22	-3	0	nt
N#Cc1c(NC(=O)C2CC=CCC2C(=O)O)sc2c1CCCCCC2 (stereo not drawn)	0	19	i	14	-4	1	-1	26
CC(C)CC(NC(=O)C1CCCCC1)C(=O)NCc1ccccn1 (stereo not drawn)	-7	5	i	-11	-16	4	2	-14
COc1ccc(C(=O)Nc2cccc(/C(C)=N/NC(=O)c3ccc([N+](=O)[O-])cc3)c2)cc1OC	-9	-1	i	nt	-4	9	2	5
Cn1cc(S(=O)(=O)N2CCc3ccccc32)cc1C(=O)Nc1ccc(Cl)cc1	-5	-12	i	-33	-3	2	-16	2
Cc1ccc(C(=O)N/C(=C\c2cccc([N+](=O)[O-])c2)C(=O)NC(Cc2ccccc2)C(=O)O)cc1 (stereo not drawn)	8	-11	nt	-3	1	-3	1	-4
CCOC(=O)c1c(NC(=O)c2ccccc2)sc2c(O)c(CN(CC)CC)ccc12	-9	-2	i	-2	-14	1	-3	32
CCC(=O)Nc1ccc(S(=O)(=O)N2CCC(c3nc4ccccc4[nH]3)CC2)cc1	nt	nt	i	18	nt	0	-3	0
Cc1nc(-c2ccccc2)sc1-c1nc(-c2ccncc2)ncc1S(=O)(=O)c1ccccc1	4	17	i	nt	-19	-37	-24	10
COc1nnc(-c2ccc(C)c(S(=O)(=O)NC(C)(C)CO)c2)c2ccccc12	19	3	i	-65	-9	6	-5	-10
Cc1cc(C)nc(N2CCCC(C(=O)NC3CC3)C2)n1 (stereo not drawn)	14	-5	i	8	-14	-1	1	0
CC(=O)N1C(C)(C)CC(=NOS(=O)(=O)c2ccccc2)CC1(C)C	5	-12	nt	11	nt	-8	-2	nt
COc1ccc(CC(=O)N2N=C(C)CC2(O)C(F)(F)F)cc1OC (stereo not drawn)	6	-7	i	-4	nt	-2	0	-14
CC(COc1ccc(/C=C/c2ccccc2)cc1)[N+](C)(C)C (stereo not drawn)	nt	nt	nt	3	-11	-2	-4	nt
O=C(C1CCCN1S(=O)(=O)c1cccc2nsnc12)N1CCN(c2ccc(F)cc2)CC1 (stereo not drawn)	7	-6	i	8	0	-6	-4	nt
CCCn1nnc(NC(=O)COc2ccc(CC)cc2)n1	5	2	i	nt	-16	2	8	5
O=C(O)C1CCC(c2ccc(-c3ccccc3)cc2)CC1 (stereo not drawn)	-5	-4	i	-5	-17	2	1	7
COC(=O)C1=CN(C2CC2)C=C(C(=O)OC)C1c1ccc(C(F)(F)F)cc1	0	-1	i	-15	nt	-6	-10	-11
CCN(CC)S(=O)(=O)c1ccc(NC(=O)C2CCCO2)cc1 (stereo not drawn)	-9	-1	i	nt	1	4	-1	-5

Among those listed so far, 2 contain a thiophene ring, fused or not.
SMILES	PABP polyA inh	eIF4H inh	Rce1 inh	Env fusion inh	Yeast UUG start	MT1-MMP act inh	MT1-MMP act inh RFP	CSC inhib
N#Cc1c(NC(=O)C2CC=CCC2C(=O)O)sc2c1CCCCCC2 (stereo not drawn)	0	19	i	14	-4	1	-1	26
CCOC(=O)c1c(NC(=O)c2ccccc2)sc2c(O)c(CN(CC)CC)ccc12	-9	-2	i	-2	-14	1	-3	32

(continued)
SMILES	PABP polyA inh	eIF4H inh	Rce1 inh	Env fusion inh	Yeast UUG start	MT1-MMP act inh	MT1-MMP act inh RFP	CSC inhib
COc1ccccc1CCC(=O)OCc1csc(CC(=O)Nc2ccccc2C)n1	1	6	i	nt	0	-2	0	15
CCCC/C=C/C(NC(=O)c1ccc(C(=O)OC)cc1)c1ccccc1 (stereo not drawn)	nt	nt	i	8	-10	-4	-7	-10
Cc1cc(C)c(C)c(S(=O)(=O)N2CCN(C(=O)c3ccco3)CC2)c1C	nt	nt	i	-4	9	1	-2	4
O=C(N/N=C/c1cccnc1)c1ccc(F)cc1	-6	10	i	17	-19	4	-2	-3
N#CC(NC(=O)OCc1ccccc1)c1ccccc1 (stereo not drawn)	nt	nt	i	-27	-14	2	7	5
CCC(C)N(C(=O)CN1C(=O)NC2(CCc3ccccc32)C1=O)C1CCS(=O)(=O)C1 (stereo not drawn)	nt	nt	nt	6	-25	-1	3	-10
Cc1ccc(C(=O)c2cc([N+](=O)[O-])ccc2N2CCOCC2)cc1	-15	-3	i	-20	nt	-4	-17	nt
CSCCC(NC(=O)c1ccccc1)C(=O)NNC(=O)c1ccccc1 (stereo not drawn)	nt	nt	nt	nt	-40	-3	1	1
CC12CCC(=O)N1C(C(=O)Nc1nc3ccc(Cl)cc3s1)CS2 (stereo not drawn)	nt	nt	i	-5	-5	-7	-2	11
CCCCn1c(N)c(N(CCC(C)C)C(=O)c2ccc(-c3ccc([N+](=O)[O-])cc3)o2)c(=O)[nH]c1=O	nt	nt	nt	nt	-6	-2	-1	47
Cc1ccc(NC(=O)CSc2nc(N)cc(N)n2)cc1S(=O)(=O)N1CCOCC1	3	1	i	-3	2	-1	-2	-8
CC1CN(C(=O)c2cc3c(s2)CCC3)CC(C)O1 (stereo not drawn)	4	-7	i	nt	nt	6	5	-1
CC(=O)Nc1cccc(C(=O)/C=C/c2ccc(C)cc2)c1	-2	-6	i	-85	nt	-7	-11	0
CCOC(=O)Cc1csc(SCC(=O)NC(C)C23CC4CC(CC(C4)C2)C3)n1 (stereo not drawn)	-8	12	i	35	2	7	7	-8
Cc1cc(C)nc(NC(=O)c2cccc(Br)c2)n1	2	-13	i	-9	-1	5	4	1
Cc1ccccc1N1CCN(CCCN2C(=O)C3CCCCN3C2=O)CC1 (stereo not drawn)	-7	0	i	20	-2	0	0	-6
CCOC(=O)c1cc2n(c1/N=C/N(C)C)-c1ccccc1C2=O	15	2	i	nt	-2	-34	5	4
Cc1nc(C(=O)N(C)C)nn1-c1cc(Cl)cc(Cl)c1	-5	4	i	4	-22	-4	6	9
CC(C)N(Cc1nccn1C)C(=O)c1ccc2oc(Cc3ccccc3)nc2c1	7	11	i	3	-15	2	0	nt
COC(=O)C1=C(C)NC(=O)NC1c1ccc(OCC(=O)N2CCCCC2)cc1 (stereo not drawn)	-3	0	i	nt	8	2	0	-3
CC(C)Cc1cc(C(=O)NCCc2ccccc2)no1	-4	5	i	-57	-17	5	4	9
CN(C)S(=O)(=O)c1ccc(NC(=O)c2ccc(Br)o2)cc1	4	1	i	nt	-8	11	9	-4
COC(=O)c1ccc(NC(=O)CCN2CCN(CCC(=O)Nc3ccc(C(=O)OC)cc3)CC2)cc1	14	-5	i	nt	-19	-1	-18	6
Nc1[nH]c(=O)[nH]c(=O)c1N=Nc1ccccc1Cl	nt	nt	i	48	-24	1	4	-4
N#CC1=C(N)n2c(s/c(=C\c3ccco3)c2=O)=C(C#N)C1c1ccco1 (stereo not drawn)	86*	99*	i	-9	-14	-39	4	1
O=C(c1ccco1)N1CCN(Cc2nnnn2CCc2ccccc2)CC1	10	-5	i	-13	-10	5	7	7
O=[N+]([O-])c1ccc(S(=O)(=O)N(CCCN2CCOCC2)Cc2cccs2)cc1	-6	26	i	2	nt	-2	-2	-11
CCn1c(SCC(=O)Nc2ccccc2Cl)nnc1C1CC1	-4	-4	i	-6	-15	4	2	-10
Cc1ccc(CNC(=O)Cn2ncn3cccc3c2=O)cc1	-11	0	i	-9	-19	0	2	4
CCCCC(CCC(=O)O)(C(=O)OCC)c1csc(Nc2ccc(C)cc2)n1 (stereo not drawn)	2	-4	i	4	nt	2	5	0
O=C(Nc1nccs1)C1CC=CCC1 (stereo not drawn)	5	4	i	7	-9	-2	0	-4
Cn1cnnc1SCc1ccc(C(=O)N/N=C(\CCC(=O)O)c2ccc(C(C)(C)C)cc2)cc1	-8	-2	nt	-10	-7	6	8	-12
CC(Sc1nc(N)cc(=O)[nH]1)C(=O)Nc1ccc(N2CCOCC2)cc1 (stereo not drawn)	nt	nt	nt	-28	-9	1	6	nt
C=CCN1C(=O)C2(OCCCO2)c2cc(C)ccc21	0	4	i	-4	-21	6	7	4
O=C(Nc1cccc(Cl)c1)NC1CCS(=O)(=O)C1 (stereo not drawn)	10	43	i	0	-19	2	3	-7
Cc1ccc(SCc2cn3ccccc3n2)cc1	3	-14	i	-47	-13	0	-2	5
CCCc1nnc(NC(=O)C2CC(=O)N(CCc3ccc(F)cc3)C2)s1 (stereo not drawn)	3	1	i	-4	-9	1	-1	-22
O=C(Nc1nc2ccccc2s1)c1c(F)cccc1Cl	1	-12	i	-37	-22	0	0	4
CCc1nnc2sc(-c3ccc(NC(=O)c4ccc5c(c4)OCCO5)cc3)nn12	12	0	i	nt	-10	9	-4	4
CCCCn1nc(C(=O)O)ccc1=O	28	-6	i	-3	-16	-2	4	0
Cc1ccccc1Nc1nc(N)nc(CSc2nc3ccccc3s2)n1	11	-9	i	23	nt	0	0	-3
CCCCc1ccc(NS(=O)(=O)c2c(C)n(C)c(=O)n(C)c2=O)cc1	-12	0	i	13	-5	2	-8	-8
O=C(O)CN1CCCC1=Nc1ccccc1	13	-13	i	-38	-8	-4	3	-4
COc1ccc(CCNC(=O)COc2ccc(C)nc2[N+](=O)[O-])cc1OC	3	3	i	14	5	-4	1	10
CCOC(=O)c1c(CSc2ccccc2)n(C)c2ccc(O)c(CN3CCN(C)CC3)c12	-2	3	i	43	nt	-2	-7	8
CC(C)COP(=O)(c1ccc(N(C)C)cc1)C(O)c1ccc(Br)cc1 (stereo not drawn)	7	11	i	56*	nt	4	-1	-4
Cc1nn(C)c(C)c1NC(=O)c1ccnn1C	0	-3	i	nt	1	5	5	-5
CN(C)C(=O)Cn1cc(S(=O)(=O)Cc2ccccc2)c2ccccc21	-5	3	i	4	-11	-4	-2	-5
Cc1noc(C)c1NC(=O)NCCN1CCN(Cc2ccccc2)CC1	-3	-9	i	-6	-10	2	3	-9
CC(C)(C)NS(=O)(=O)c1ccc(CCC(=O)NCc2cccnc2)cc1	5	1	i	nt	-21	5	6	-14
O=C(N/N=C/c1ccco1)c1ccc(N2CCCC2=O)cc1	-4	6	i	2	-9	3	5	0
CCc1ccc(N2CC(C(=O)Nc3ccc(OC)c(S(=O)(=O)N4CCOCC4)c3)CC2=O)cc1 (stereo not drawn)	nt	nt	nt	14	-8	3	5	nt
Cc1ccc(CNC(=O)C2CC(c3ccc([N+](=O)[O-])cc3)=NO2)cc1 (stereo not drawn)	1	-4	i	-12	-20	4	3	23
COc1ccc(CNC(=O)COC(=O)CO/N=C(\C)c2ccc3c(c2)OCO3)cc1	nt	nt	i	-2	-5	-1	4	-14
CC1=NN(c2nc(-c3ccc(F)cc3)cs2)C(=O)C1	12	27	i	nt	-24	1	-2	86*
O=C(Cn1nc(-c2ccc3c(c2)OCCO3)ccc1=O)Nc1cccc(NC(=O)c2ccccn2)c1	-1	7	i	nt	nt	nt	nt	-13
O=C(CCCCCNC(=O)N1CCn2c1nc1ccccc12)NCc1ccc(F)cc1	0	-6	i	-6	-12	1	5	-6
CCCN1CCN(c2ncnc3scc(C4COc5ccccc5O4)c23)CC1 (stereo not drawn)	9	8	i	7	4	-3	-7	-1
COc1ccc(CNC(=S)Nc2ccc(F)c(Cl)c2)cc1	8	-7	i	-11	nt	2	1	10

Profiles, looked up by structure. Screens in order: PABP polyA inh | eIF4H inh | Rce1 inh | Env fusion inh | Yeast UUG start | MT1-MMP act inh | MT1-MMP act inh RFP | CSC inhib
Profile of `Cc1ccc(C(=O)c2cc([N+](=O)[O-])ccc2N2CCOCC2)cc1` → -15 | -3 | i | -20 | nt | -4 | -17 | nt
Profile of `Cc1ccc(NC(=O)CSc2nc(N)cc(N)n2)cc1S(=O)(=O)N1CCOCC1` → 3 | 1 | i | -3 | 2 | -1 | -2 | -8
Profile of `COc1ccc(CC(=O)N2N=C(C)CC2(O)C(F)(F)F)cc1OC` (stereo not drawn) → 6 | -7 | i | -4 | nt | -2 | 0 | -14

Screening data as filed in PubChem.

A portion of the library; count on the stated rates, not on these rows.
